# Screening data (PubChem BioAssay)
# gsp antagonist – antagonists of gsp mutant (McCune-Albright syndrome) | Potency, µM (highest dose often 76.9 µM), without a hit: at the top dose activity change, negative = inhibition, usual class: inhibitors | gsp-mutant cells, cAMP HTRF, 30 min; control for the full effect not named in the record | AID 624288 | 340,000 tested, 0.4% active; active = falling curve of any shape with a large fitted effect; inconclusive = falling curve, mostly with a smaller effect; inactive = flat or rising curve; cell line not stated here;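 note: intracellular cAMP measured with PDE inhibitor Ro 20-1724 present during compound exposure; potency is the fitted concentration of half-maximal effect; % is set by controls: 0 for no effect and ±100 for the full control effect; nearly all actives have a fitted effect of over 65% in size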
#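 HTRF cAMP read-out (cAMP-d2 plus anti-cAMP antibody-K in lysis buffer, 30 min RT). Before lysis, cells are exposed to compounds with […] for 30 min at 37C in DPBS containing Ca/Mg, BSA and Tween 20.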
# CtBP-E1A inh – inhibitors of CtBP/E1A interaction; activity change, % (concentration not given with the values); 340,000 tested, 0.49% active; AID 651724; AlphaScreen GST-E1A/His-CtBP binding, 1536-well; stronger effect = lower value; control for the full effect not named in the record; in the data active means activity change below about -65%; inconclusive means about -30% to -65%; inactive means above about -30%; note: % is set by controls: 0 for no effect and ±100 for the full control effect
#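 GST-E1A and His-tagged CtBP (125 nM each as 5X stock) were preincubated with pin-transferred compound for 2 h at 37 °C in the dark, then glutathione donor and nickel acceptor beads were added for 1 h before AlphaScreen reading.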
# ClpP mod – qHTS Assay for Activators of ClpP; ATP-dependent Clp protease proteolytic subunit (Bacillus subtilis (strain 168)), P80244; purified B. subtilis ClpP, FRET peptide cleavage, 20 min; Potency, µM (top dose mostly 57.5 µM), inactives show top-dose activity change, negative = active; 340,000 tested, 1.9% active; active = well fitted falling curve with a large enough effect; inconclusive = small, poorly fitted or top-dose-only effect; inactive = no such curve, though single readings can be large or run the other way; note: potency is the fitted concentration of half-maximal effect; the source files actives as falling curves though it sought activators and does not explain the sign; nearly all actives have a fitted effect of over 65% in size; many hits overshoot -100%
# Target sequence (P80244 whole entry, looked up): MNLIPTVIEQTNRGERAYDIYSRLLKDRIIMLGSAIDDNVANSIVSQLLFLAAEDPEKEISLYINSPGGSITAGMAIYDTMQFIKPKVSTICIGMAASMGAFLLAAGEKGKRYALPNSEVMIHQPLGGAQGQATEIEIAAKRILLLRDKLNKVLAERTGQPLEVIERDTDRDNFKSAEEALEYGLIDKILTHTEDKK
#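 FRET quenching reversal measured ClpP activation: 10 microg/mL B. subtilis ClpP at pH 8 with the FRET-FV decapeptide, read at 430 nm after 320 nm excitation. The 20-min minus 0-min signal was scaled between DMSO/no-enzyme wells and ADEP (5.8 microM final).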
# Menin MLL FP FL – menin-MLL binding inhibition, fluorescein peptide; Fluorescence polarization, fluorescein-MLL peptide displacement from menin; FP activity change, % at 61.4 µM; 290,000 tested, under 10 active; AID 1766; inconclusive = falling polarisation curve, or a change in total fluorescence; inactive = total fluorescence flat and polarisation flat or rising; no compound was filed as active; the % refers to the polarisation; negative = inhibition;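 note: % of control where 0% means no effect; inhibitors lower the polarisation; unlabelled MLL peptide was the positive control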
# gsp ag – agonists of gsp mutant (McCune-Albright syndrome). 340,000 tested, 0.13% active. gsp mutant cells, cAMP HTRF, 30 min; control for the full effect not named in the record. AID 624287. Potency, µM (doses to about 76.9 µM), for the others: at the highest dose activation (cAMP increase), usual class: activators; active = well fitted activation curve with a large enough effect; inconclusive = small, poorly fitted or top-dose-only effect, or another doubt; inactive = no such curve, though single readings can be large or run the other way; cell line not stated here;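 note: phosphodiesterase inhibitor Ro 20-1724 added with compounds to block cAMP breakdown; potency is the fitted concentration of half-maximal effect; nearly all actives have a fitted effect of over 60% in size; about a fifth of the inactives were tested at one dose only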
#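 Cells stably selected in G418 were plated at 2000/well, grown 16-24 hr, then given compounds in DMSO with the PDE inhibitor […] (300 uM solution added) for 30 min at 37C; cAMP was read by HTRF.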
# Sfp PPTase inh – inhibitors of Bacillus subtilis Sfp phosphopantetheinyl transferase; Q9F4F7; Biochemical Sfp PPTase activity, qHTS; Potency, µM, for the others: max response, negative = inhibition, actives largely listed as inhibitors; 310,000 tested, 3.5% active; AID 1490; active = well fitted inhibition curve with a large enough effect; inconclusive = small, poorly fitted or top-dose-only effect, or another doubt; inactive = no such curve, though single readings can be large or run the other way;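 note: the enzyme is Sfp with the accession as filed and its product quenches rhodamine fluorescence; potency is the fitted concentration of half-maximal effect; 0% = enzyme reaction without inhibitor and -100% = no enzyme wells; top concentration of the series not given in the record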
#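 Fluorescence-quenching assay with 15 nM Sfp, 5 uM rhodamine-CoA and 12.5 uM BHQ-2-labelled ybbR peptide in pH 7.6 Hepes/MgCl2 buffer. Enzyme was pre-incubated with compound for 15 min at room temperature. Rate was taken from the 30-min fluorescence change (525/598 nm).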
# TRPV1 potentiator – human TRPV1 potentiation | Q8NER1 | TRPV1-expressing cells, Fluo-8 calcium influx, capsaicin EC20 potentiation; host cell line not named in the record; control for the full effect not named in the record | potentiation, % at 8.33 µM | 320,000 tested, 0.02% active | AID 540277; active means potentiation above 80%; inconclusive means 30% to 80%; inactive means below 30%; note: 0% is about no effect
# Target sequence (Q8NER1 whole entry, looked up): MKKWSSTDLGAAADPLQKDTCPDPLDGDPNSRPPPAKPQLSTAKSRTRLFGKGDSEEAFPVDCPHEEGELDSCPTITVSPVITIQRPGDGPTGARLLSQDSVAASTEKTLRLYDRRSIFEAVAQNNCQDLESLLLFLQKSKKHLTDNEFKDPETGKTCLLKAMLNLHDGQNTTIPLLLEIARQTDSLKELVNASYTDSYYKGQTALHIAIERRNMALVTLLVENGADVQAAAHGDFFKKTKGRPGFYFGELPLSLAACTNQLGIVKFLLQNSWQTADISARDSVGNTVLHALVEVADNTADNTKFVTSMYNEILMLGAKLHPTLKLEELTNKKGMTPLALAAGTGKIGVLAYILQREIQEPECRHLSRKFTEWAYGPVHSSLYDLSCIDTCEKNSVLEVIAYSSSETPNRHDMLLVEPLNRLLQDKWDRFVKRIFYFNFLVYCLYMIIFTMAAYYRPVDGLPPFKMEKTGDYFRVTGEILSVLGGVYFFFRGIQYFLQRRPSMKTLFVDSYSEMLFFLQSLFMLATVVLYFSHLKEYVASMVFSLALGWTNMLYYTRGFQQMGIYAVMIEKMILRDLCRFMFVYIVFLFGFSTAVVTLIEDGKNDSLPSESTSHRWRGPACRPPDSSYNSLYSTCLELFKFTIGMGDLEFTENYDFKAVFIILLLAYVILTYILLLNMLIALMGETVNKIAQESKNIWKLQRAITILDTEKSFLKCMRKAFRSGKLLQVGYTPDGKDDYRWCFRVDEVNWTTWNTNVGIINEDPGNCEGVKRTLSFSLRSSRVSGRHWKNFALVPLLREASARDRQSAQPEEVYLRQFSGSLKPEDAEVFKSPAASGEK
#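 Fluo-8 calcium influx in TRPV1-expressing cells, kinetic read (ex 480/em 520 nm). Compound added and read 3 min for agonist activity, followed by capsaicin at EC20 final and 2 min further read for enhancement.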
# * marks the source's active call; other numbers are inactive results; u = inconclusive; x = not tested or not shown; [ ] = remark or other dose.
mol | gsp antagonist | CtBP-E1A inh | ClpP mod | Menin MLL FP FL | gsp ag | Sfp PPTase inh | TRPV1 potentiator
O=C(C[n+]1ccccc1)N/N=C/c1cc(Br)ccc1O | 4.9% | 0.0 | 1.3% | -3.6 | 8.9%[15.4 µM] | 17.1% | -0.8
Cc1cc2cc(CNC(=S)Nc3ccc(OC(F)(F)F)cc3)ccc2n1C | 6.7% | -2.8 | -2.1% | 3.8 | u | 26.8% | 3.9
O=C(COc1ccc(Cl)cc1)N(Cc1cccs1)C1CCS(=O)(=O)C1 (configuration not stated) | -17.2% | 0.0 | 1.5% | 1.3 | 16.8% | 16.6% | 13.4
CC(C)(C)c1ccc(COc2ccsc2C(=O)O)cc1 | -12.1% | 0.0 | x | 2.9 | -12.7%[15.4 µM] | 14.4% | 7.5
COc1ccc(NS(=O)(=O)c2ccc3c(c2)CCCN3C(C)=O)cc1 | 11.4% | -16.1 | -0.4% | 0.4 | 7.5% | 10.2% | 11.4
COc1ccc(OCCSc2nc3ccccc3n2CCC(=O)O)cc1 | -7.3% | -18.3 | x | -1.8 | -11.3% | 24.1% | -4.1
O=C(CSc1nncn1-c1ccccc1)Nc1cc(F)ccc1F | 12.1% | 8.7 | x | -2.7 | -29.6% | 12.7% | 23.4
CCn1c(=O)c(C(=O)CN2CCN(S(=O)(=O)c3ccccc3)CC2)c(N)n(Cc2ccccc2)c1=O | u | -1.4 | -21.6% | 8.9 | 8.3%[15.4 µM] | 12.0% | 8.8
Cc1cc(C(=O)Cn2nc(C(=O)O)c3ccccc3c2=O)c(C)n1CCc1ccc(F)cc1 | -5.5% | 9.7 | x | 4.6 | 4.2%[15.4 µM] | 2.7% | x
O=C(COC(=O)c1cc([N+](=O)[O-])ccc1N1CCOCC1)NCCc1ccccc1 | 14.7% | 2.7 | -2.6% | x | 5.9%[15.4 µM] | -6.6% | -6.8
Cc1ccc(C)c(NC(=O)COC(=O)COc2cccc3c2OC(C)(C)C3)c1 | -5.1% | 2.1 | -0.2% | x | 3.5%[15.4 µM] | x | u
C=CCNC(=O)c1cc(-c2ccc3c(c2)OCO3)on1 | 13.8% | 7.7 | x | -0.9 | -1.0% | 12.9% | 0.7
COc1cc(/C=C/c2ccc3cccc(O)c3n2)cc(OC)c1OC | -6.3% | -1.1 | x | -0.4 | 6.7%[15.4 µM] | 7.9% | -9.5
Cc1cc(Nc2ccccc2Cl)nc(-c2ccccc2O)n1 | u | 15.7 | x | -1.0 | u | 5.9% | -8.1
CC(CCc1ccccc1)NC(=O)Cc1ccc(Br)cc1 (configuration not stated) | -8.3% | -5.7 | -0.9% | 0.6 | 4.0%[15.4 µM] | 19.6% | 25.0
COc1ccc2[nH]cc(C(=O)CN3CCCCC3C)c2c1 (configuration not stated) | x | x | x | 0.5 | x | -2.7% | -1.6

# Results in CtBP-E1A inh, for some of the entries so far:
mol | CtBP-E1A inh
Cc1cc(C(=O)Cn2nc(C(=O)O)c3ccccc3c2=O)c(C)n1CCc1ccc(F)cc1 | 9.7
O=C(COC(=O)c1cc([N+](=O)[O-])ccc1N1CCOCC1)NCCc1ccccc1 | 2.7
Cc1ccc(C)c(NC(=O)COC(=O)COc2cccc3c2OC(C)(C)C3)c1 | 2.1
C=CCNC(=O)c1cc(-c2ccc3c(c2)OCO3)on1 | 7.7
COc1cc(/C=C/c2ccc3cccc(O)c3n2)cc(OC)c1OC | -1.1

# Next part
mol | gsp antagonist | CtBP-E1A inh | ClpP mod | Menin MLL FP FL | gsp ag | Sfp PPTase inh | TRPV1 potentiator
COc1ccc(Cl)cc1/C=N/NC(=O)c1c(-c2ccccc2)noc1C | u | 1.1 | -16.2% | x | 2.1% | 7.3% | 5.5
Cc1ccc(OCCCC(=O)Nc2nncs2)cc1 | -1.3% | -3.9 | -1.8% | 4.7 | -16.5% | 11.1% | 5.0
CCN(C(=O)C(C)Cl)c1ccccc1 (configuration not stated) | 14.6% | 6.7 | -23.9% | -1.1 | -7.5%[15.4 µM] | 8.4% | -20.3
CCOc1ccc(NC(=O)N2CCN(c3nc4ccccc4s3)CC2)cc1 | -7.1% | -5.3 | -3.6% | 2.0 | -21.4% | 14.5% | 0.7
CCN(Cc1ccccc1)c1ccc(/C=N/NS(=O)(=O)c2cccc([N+](=O)[O-])c2)cc1 | -4.1% | -17.9 | -2.0% | x | -1.8% | u | 0.9
CCOc1ccc2nc(SCC(=O)c3ccc(O)cc3O)sc2c1 | -3.3% | x | 0.4% | -9.3 | -12.6% | 5.3% | u
Cc1cc(NC(=O)c2ccccc2)nc(C)n1 | -7.3% | 3.8 | x | 3.5 | u | 2.5% | 28.0
CSCCC(NC(=O)OCc1ccccc1)C(=O)NCc1cccnc1 (configuration not stated) | -5.3% | 6.1 | -0.3% | -3.4 | -20.3% | 5.8% | 3.0
O=C(CN1C(=O)S/C(=C\c2ccccc2)C1=O)Nc1cc([N+](=O)[O-])ccc1O | u | -2.8 | 0.5% | 5.0 | -23.9% | 16.1% | 9.1
Cc1c(-c2ccccc2)nc2ccccc2c1C(=O)Nc1ccncc1 | -13.0% | -6.0 | -1.8% | -0.7 | u | 14.7% | 8.7
Cc1cc(-c2nc(C)c(C(=O)NNC(=O)NC(C)C)s2)no1 | 18.2% | 5.4 | -1.7% | -0.1 | 3.0%[15.4 µM] | 6.3% | u
O=C(COC(=O)CCc1nc2ccccc2n1-c1ccccc1)Nc1ccc(N2CCCCC2)cc1 | -33.7% | -3.6 | -1.6% | 4.5 | 7.4%[15.4 µM] | -0.1% | 12.0
COc1ccc(-c2cc(C(=O)Nc3cccc(C(C)=O)c3)no2)cc1 | 13.1% | 5.9 | 0.0% | 2.8 | u | -4.6% | -1.8
O=C(COC(=O)c1ccc(S(=O)(=O)N2CCCC2)cc1)Nc1cccc(Cl)c1 | -2.4% | 2.5 | -0.2% | x | -124.6% | x | 10.0
CCc1cc(-c2n[nH]c(C)c2Oc2ccc(C(C)C)cc2)c(O)cc1O | -12.9% | -2.6 | -7.0% | -0.3 | -50.6%[inhibitor] | 26.2% | 4.6
CCCS(=O)(=O)N1CCCC(C(=O)N2CCN(c3ccccn3)CC2)C1 (configuration not stated) | 4.2% | 4.3 | u | 3.9 | -7.2% | 3.6% | -14.6
COc1ccccc1C(=O)Nc1ccc(S(=O)(=O)N2CCCCC2)cc1 | -11.6% | -0.6 | x | -2.7 | u | 11.0% | -9.9
CCOc1ccccc1C(=O)Nc1nn[nH]n1 | -11.5% | -1.4 | x | 0.3 | u | 23.3% | 10.6
COc1cccc(/C=N/NC(=O)CCCC(=O)Nc2ccc(Br)cc2)c1 | -2.7% | -8.6 | -1.2% | -2.3 | -18.9% | 5.9% | 5.0
COC(=O)c1c(N)c(C#N)c2n1CCCCC2 | 8.7% | -2.0 | 0.7% | 2.1 | -50.8%[inhibitor] | 9.8% | 0.2
CC1(C)Cc2c(sc3ncn4nc(CCC(=O)O)c(=O)nc4c23)CO1 | 11.5% | -3.1 | -19.6% | 0.6 | u | -16.8% | 1.8
O=C1N[C@@H](c2ccccc2)COC(=O)[C@H](Cc2ccc(F)cc2)CC/C=C/C[C@H]1CC(=O)N(CCO)Cc1ccccc1 | u | -0.4 | -1.7% | x | x | x | x
CCCCCc1nc2ccccc2c(=O)n1N | 7.6% | 11.5 | 0.5% | -1.1 | 15.3% | 10.2% | 7.4
CCOC(=O)CN(C(=O)COc1nc(-c2ccccc2)cc(C)c1C#N)c1ccccc1C | -0.9% | x | 3.9% | 6.8 | 2.9% | 14.6% | 28.9
O=C1CN(C(=O)/C=C/c2ccccc2)CCN1 | -2.6% | 5.9 | x | 6.4 | -3.0% | 10.8% | 2.2
NS(=O)(=O)c1ccc(CNC(=O)c2ccc(NS(=O)(=O)c3ccc4[nH]c(=O)[nH]c4c3)cc2)cc1 | 6.5% | 2.7 | x | x | 8.8%[15.4 µM] | x | -1.5
C/C(=C\C(=O)c1ccc(C)cc1)Nc1cccc(O)c1 | u | -10.8 | -1.1% | -0.2 | -12.9% | -0.7% | 5.2
COc1ccc(CC(=O)Nc2ccc(S(=O)(=O)Nc3nccc(C)n3)cc2)cc1 | -4.5% | 3.9 | -1.3% | 3.4 | 26.5% | -5.4% | 18.2
COc1ccc(C(=O)N2CCc3cc(OC)c(OC)cc3C2)cc1OC | -12.3% | -2.0 | -3.7% | 5.0 | -2.0% | -1.7% | 2.1
Cc1cc2c(N)cccc2nn1 | -23.0% | -8.7 | -0.6% | x | -31.7%[inhibitor] | 2µM* | 2.5
CCOc1ccc(CN(C)C(=O)CCNC(=O)c2ccco2)cc1 | -1.1% | 6.2 | 0.4% | x | u | x | -18.3
Cc1nn(CC(C)C)c(Cl)c1C(=O)N(c1ccc(Cl)cc1F)S(C)(=O)=O | -1.9% | -5.6 | x | -1.6 | 9.3% | -3.9% | -5.2
Cc1[nH]c2ccccc2c1C(=O)C(C)OC(=O)c1ccc(NC(=O)CC#N)cc1 (configuration not stated) | -13.8% | 0.3 | u | x | -31.4% | x | 4.8
COc1cc(/C=N/NC(=O)CCC(=O)Nc2ccc(C)cc2)ccc1O | -0.4% | -8.1 | x | u | 2.4%[15.4 µM] | 16.7% | -3.1
CC(=O)c1c(COC(=O)c2cccc(C)c2)nc2ccccc2[n+]1[O-] | u | x | 0.0% | -1.2 | 24.1% | -5.2% | 6.4
Fc1ccccc1CSc1ncnc2c1oc1ccccc12 | -5.4% | 8.4 | -3.5% | -2.8 | -35.6%[inhibitor] | -14.7% | 28.9

# Full records, looked up by structure. Order of values: gsp antagonist | CtBP-E1A inh | ClpP mod | Menin MLL FP FL | gsp ag | Sfp PPTase inh | TRPV1 potentiator
# Listed for `CC(=O)c1c(COC(=O)c2cccc(C)c2)nc2ccccc2[n+]1[O-]` = u | x | 0.0% | -1.2 | 24.1% | -5.2% | 6.4
# Listed for `Fc1ccccc1CSc1ncnc2c1oc1ccccc12` = -5.4% | 8.4 | -3.5% | -2.8 | -35.6%[inhibitor] | -14.7% | 28.9

# Rows are unselected. Share with any hit: about 5.3%.
